Screening data deposited in PubChem by several laboratories.
LANA-H2B inh = blocks KSHV LANA binding to histone H2A/H2B | 320,000 compounds, 0.6% hits | inhibition, % (test concentration not listed) | Q9QR71 | AID 2629 | cell-free LANA-H2A/H2B peptide, fluorescence polarization; in the data active = inhibition mostly above about 10%, no sharp cut-off; inactive = mostly below about 6.7%;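 also: stock transfer was 7.5 nL into about 10 µL; 0% = median of vehicle wells and 100% = median of positive control wells; one replicate is shown; the record names a cut of 25% in any replicate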
B2AR ag = activates human beta-2 adrenergic receptor causing internalization. response, % (concentration not given with the values). Am2.2-beta2AR cells, FAP receptor internalization, flow cytometry; reference of the scale not given here. 340,000 compounds, 0.43% hits. P07550;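 active = response above a set limit, near 3 SD of response in nonfluorescent compounds, cut at about 42% in these data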;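 also: stock transfer was 100 nL into about 11 µL; a reference agonist was the positive control; negative values mostly stem from fluorescent compounds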
UCH37 DUB inh = inhibitors of human deubiquitinating enzyme UCH37; Q9Y5K5; purified proteasome/UCH37, Ub-AMC cleavage fluorescence; inhibition, % (concentration not given with the values); 330,000 compounds, 0.33% hits; AID 588478;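 active = mean of two replicates above 20%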;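 also: 0% = compound-free wells with enzyme and 100% = wells lacking proteasome; stock transfer was 100 nL into about 20 µL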
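assay system = human UCH37 enzyme supplied as purified proteasome complex | amount = proteasome at 0.15 nM in the dispensed enzyme solution | schedule = 30 min compound-proteasome preincubation then 25 min substrate reaction, room temperature | measured by = fluorescence, ex 355 nm, em 460 nm | benchmarks = no-proteasome wells (full inhibition) and compound-free wells (no inhibition)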
ALR H2O2 inh = inhibitors of human sulfhydryl oxidase ALR; AID 485317; inhibition, % (concentration not given with the values); purified ALR, DTT oxidation, H2O2 HRP-luminol luminescence; P55789; 290,000 compounds, 3.8% hits;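 active = mean and each replicate at 75% or more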;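 also: stock transfer was 7.5 nL into about 7.5 µL; 0% = neutral wells and 100% = wells with inactivated enzyme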
Target sequence (P55789 whole entry, looked up): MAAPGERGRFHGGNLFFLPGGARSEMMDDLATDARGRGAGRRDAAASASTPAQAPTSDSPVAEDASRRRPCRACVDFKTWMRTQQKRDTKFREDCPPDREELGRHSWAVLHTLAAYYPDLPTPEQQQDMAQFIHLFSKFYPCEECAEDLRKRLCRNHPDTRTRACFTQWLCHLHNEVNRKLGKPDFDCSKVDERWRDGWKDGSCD
HNF4A DNA FP = change in binding of human HNF4 alpha to DNA; HNF4a-FITC DNA binding, fluorescence polarization, 1 h; P41235; 360,000 compounds, 0.3% hits; activity change, % at 10 µM; in the data active = activity change above about 30%, passing the limit was not always enough;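 also: controls were the assay level and a saturating level of protein; the project sought stronger binding though the title names inhibitors; some compounds called inactive have numbers as strong as hits; positive values seem to mean higher polarization but the record does not say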
Target sequence (P41235 whole entry, looked up): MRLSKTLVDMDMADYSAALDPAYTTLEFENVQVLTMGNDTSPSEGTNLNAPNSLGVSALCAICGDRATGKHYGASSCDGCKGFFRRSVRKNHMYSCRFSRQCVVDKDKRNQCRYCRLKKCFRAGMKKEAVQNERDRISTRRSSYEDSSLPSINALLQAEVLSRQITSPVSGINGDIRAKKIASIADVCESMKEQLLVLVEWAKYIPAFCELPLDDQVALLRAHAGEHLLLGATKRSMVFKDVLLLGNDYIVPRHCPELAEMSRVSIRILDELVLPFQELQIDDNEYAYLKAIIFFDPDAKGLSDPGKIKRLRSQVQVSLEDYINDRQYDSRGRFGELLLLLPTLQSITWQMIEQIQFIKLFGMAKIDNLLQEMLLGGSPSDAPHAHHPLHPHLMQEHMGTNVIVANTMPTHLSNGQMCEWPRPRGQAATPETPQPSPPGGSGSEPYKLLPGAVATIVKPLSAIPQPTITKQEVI
E coli growth = E. coli growth inhibition | Escherichia coli growth, OD600, 23 h; hits give low values | OD600 absorbance (test concentration not listed) | 330,000 compounds, 0.21% hits;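 active = OD600 absorbance below the run mean of sample wells minus 3.6 SD, in any replicate, cut at about 0.56 in these data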;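 also: stock transfer was 300 nL into about 60 µL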
FGF22 binding = FGF22 (human) thermal shift binding; AID 651658; calls only at 9.99 µM; recombinant FGF22 thermal shift, SYPRO orange fluorescence; percent of sucrose octasulfate shift, DMSO zero; 340,000 compounds, 1.5% hits;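 active = melting point raised past a set limit in the mean and every replicate; three in four hits are not shown here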
Target sequence (Q9HCT0 whole entry, looked up): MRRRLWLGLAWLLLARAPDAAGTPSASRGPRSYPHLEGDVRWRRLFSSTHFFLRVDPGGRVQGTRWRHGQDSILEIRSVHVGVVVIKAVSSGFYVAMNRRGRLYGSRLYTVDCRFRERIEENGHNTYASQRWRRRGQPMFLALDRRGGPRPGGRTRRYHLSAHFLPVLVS
An asterisk follows results filed as active. These rows are one share of the data; the hit share may differ from the screen's.

Results for CC(C)c1ccc2oc(-c3ccc(NC(=O)c4ncn[nH]4)cc3)nc2c1 ?
LANA-H2B inh: 0.7; B2AR ag: 3; UCH37 DUB inh: -122; ALR H2O2 inh: 21; HNF4A DNA FP: -5.0; E coli growth: 0.68

What do the screens show for `Cc1ccccc1NC(=O)c1nc2nccc(C)n2n1`?
LANA-H2B inh: -0.3; B2AR ag: 0; UCH37 DUB inh: 1.2; ALR H2O2 inh: 1; HNF4A DNA FP: 2.3; E coli growth: 0.69

Results for COC(=O)c1ccccc1NC(=O)Oc1ccc(C(C)C)cc1 ?
LANA-H2B inh: 1.2; B2AR ag: 3; UCH37 DUB inh: 1.8; ALR H2O2 inh: 92*; HNF4A DNA FP: 1.7; E coli growth: 0.69; FGF22 binding: inactive

How did Cc1cc(Br)cc2c(C(=O)NCC3CCCO3)cc(-c3ccccc3)nc12 (centres undefined) do in these assays?
LANA-H2B inh: -5.2; B2AR ag: -3; UCH37 DUB inh: 3.1; ALR H2O2 inh: 8; HNF4A DNA FP: -1.8; E coli growth: 0.71; FGF22 binding: inactive

What do the screens show for `Oc1ccc(/C=N/Nc2ccc(C(F)(F)F)cn2)cc1`?
LANA-H2B inh: -2.9; B2AR ag: -9; ALR H2O2 inh: 97*; HNF4A DNA FP: 1.5; FGF22 binding: inactive

What do the screens show for `COc1ccccc1/C=C(/C(=O)NCCCn1ccnc1)c1ccccc1`?
LANA-H2B inh: -6.7; B2AR ag: 1; UCH37 DUB inh: 2.0; ALR H2O2 inh: -12; HNF4A DNA FP: 4.0; E coli growth: 0.69; FGF22 binding: inactive

Results for Cc1ccc(N(CC(=O)Nc2c(C)n(C)n(-c3ccccc3)c2=O)S(C)(=O)=O)cc1C ?
LANA-H2B inh: 0.9; B2AR ag: 0; UCH37 DUB inh: 4.2; ALR H2O2 inh: -7; HNF4A DNA FP: -0.3; E coli growth: 0.7

What do the screens show for `O=C(NC1=NCCS1)C1Cc2ccccc2CN1C(=O)c1ccccc1` (centres undefined)?
LANA-H2B inh: -6.0; B2AR ag: 1; UCH37 DUB inh: 1.7; ALR H2O2 inh: 5; HNF4A DNA FP: -1.3; E coli growth: 0.68

How did CC1CC(C)CN(C(=O)Cn2c(=O)n(CCCCC(=O)NC3CCCC3)c(=O)c3ccccc32)C1 (centres undefined) do in these assays?
LANA-H2B inh: 1.2; B2AR ag: -1; UCH37 DUB inh: 1.4; ALR H2O2 inh: -1; HNF4A DNA FP: 2.3; E coli growth: 0.76

Results for COC(=O)c1ccc(COc2cc(O)c3c(c2)OC(C)(C)CC3=O)cc1 ?
LANA-H2B inh: 2.1; B2AR ag: 45*; UCH37 DUB inh: -0.3; ALR H2O2 inh: -1; HNF4A DNA FP: 0.4; E coli growth: 0.73

What do the screens show for `CCCN1Cc2cccc(C(=O)Nc3ccc4c(c3)OCO4)c2C1=O`?
LANA-H2B inh: -4.5; B2AR ag: -6; UCH37 DUB inh: -2.6; ALR H2O2 inh: -10; HNF4A DNA FP: 2.1; E coli growth: 0.67

What do the screens show for `COc1ccc(NC(=O)/C(C#N)=C/c2ccc(OCCN3CCOCC3)c(OC)c2)c(OC)c1`?
LANA-H2B inh: -1.8; B2AR ag: 10; UCH37 DUB inh: 0.4; ALR H2O2 inh: -3; HNF4A DNA FP: -1.4; E coli growth: 0.7

What do the screens show for `COc1cc(-c2nc(CN3CCN(C(=O)c4ccco4)CC3)c(C)o2)ccc1F`?
LANA-H2B inh: -0.1; B2AR ag: -2; UCH37 DUB inh: 0.1; ALR H2O2 inh: -1; HNF4A DNA FP: -8.1; E coli growth: 0.7; FGF22 binding: inactive

What do the screens show for `CC(C(=O)Nc1ccc2c(c1)OCCO2)c1ccc([N+](=O)[O-])cc1` (centres undefined)?
LANA-H2B inh: 3.4; B2AR ag: 6; UCH37 DUB inh: 0.7; HNF4A DNA FP: -1.2; E coli growth: 0.71; FGF22 binding: inactive

How did COC(=O)CSc1nc2c(c(C3CC=CCC3)c1C#N)CCC2 (centres undefined) do in these assays?
LANA-H2B inh: 1.3; B2AR ag: -1; UCH37 DUB inh: -2.1; ALR H2O2 inh: -10; HNF4A DNA FP: 0.6; E coli growth: 0.68

What do the screens show for `COc1ccc(OCCn2ccnc2)cc1`?
LANA-H2B inh: -3.6; B2AR ag: -4; UCH37 DUB inh: 1.4; HNF4A DNA FP: 1.3; E coli growth: 0.68; FGF22 binding: inactive

Results for CC[C@@H]1CCCCc2ccccc2[C@@H](C(=O)C[C@H](O)CC(C)=O)OC1=O ?
LANA-H2B inh: 1.6; B2AR ag: -1; UCH37 DUB inh: 6.4; HNF4A DNA FP: -0.2; E coli growth: 0.72; FGF22 binding: inactive

Results for CC1(NC(=O)c2cccc(S(=O)(=O)N3CCCc4ccccc43)c2)CCS(=O)(=O)C1 (centres undefined) ?
B2AR ag: 2; UCH37 DUB inh: 0.7; HNF4A DNA FP: 0.6; E coli growth: 0.66; FGF22 binding: inactive

How did Cc1ccc(Nc2cc(-n3nc(C)cc3C)ncn2)cc1 do in these assays?
LANA-H2B inh: 0.4; B2AR ag: 2; UCH37 DUB inh: 0.9; ALR H2O2 inh: 35; HNF4A DNA FP: 4.1; E coli growth: 0.74

Results for O=C(NC(=S)N1CCN(c2ccccc2)CC1)c1ccc(S(=O)(=O)N2CCOCC2)cc1 ?
LANA-H2B inh: 5.4; B2AR ag: 3; UCH37 DUB inh: 4.2; ALR H2O2 inh: 10; HNF4A DNA FP: 3.4; E coli growth: 0.71; FGF22 binding: inactive

What do the screens show for `Cc1c(Cl)cccc1NC(=S)N(Cc1ccccc1)Cc1cccnc1`?
LANA-H2B inh: -1.9; B2AR ag: -14; UCH37 DUB inh: -3.2; HNF4A DNA FP: 0.5; E coli growth: 0.58*

What do the screens show for `COc1cccc(NC(=O)c2ccc(CN3CCc4ccccc4C3)cc2)c1`?
LANA-H2B inh: -1.1; B2AR ag: 11; UCH37 DUB inh: 1.3; HNF4A DNA FP: -1.8; E coli growth: 0.58; FGF22 binding: inactive

How did N#Cc1cc2cc3c(cc2nc1SCC(=O)N1CCOCC1)OCO3 do in these assays?
LANA-H2B inh: -2.7; B2AR ag: -1; UCH37 DUB inh: -12; ALR H2O2 inh: -4; HNF4A DNA FP: 2.1; E coli growth: 0.7; FGF22 binding: inactive

How did Cc1ccc([C@@H]2CC=C(C(=O)O)[C@H](c3cccc(Cl)c3)N2S(=O)(=O)c2ccc(C)cc2)cc1 do in these assays?
LANA-H2B inh: -0.1; B2AR ag: -1; UCH37 DUB inh: 2.8; ALR H2O2 inh: 5; HNF4A DNA FP: -2.4; E coli growth: 0.79; FGF22 binding: inactive

Part of the list above in order of formula weight, largest number first.
Results for O=C(NC(=S)N1CCN(c2ccccc2)CC1)c1ccc(S(=O)(=O)N2CCOCC2)cc1 ?
LANA-H2B inh: 5.4; B2AR ag: 3; UCH37 DUB inh: 4.2; ALR H2O2 inh: 10; HNF4A DNA FP: 3.4; E coli growth: 0.71; FGF22 binding: inactive

Results for CC1(NC(=O)c2cccc(S(=O)(=O)N3CCCc4ccccc43)c2)CCS(=O)(=O)C1 (centres undefined) ?
B2AR ag: 2; UCH37 DUB inh: 0.7; HNF4A DNA FP: 0.6; E coli growth: 0.66; FGF22 binding: inactive

What do the screens show for `COc1cccc(NC(=O)c2ccc(CN3CCc4ccccc4C3)cc2)c1`?
LANA-H2B inh: -1.1; B2AR ag: 11; UCH37 DUB inh: 1.3; HNF4A DNA FP: -1.8; E coli growth: 0.58; FGF22 binding: inactive

Remaining list, next part.
How did C=CCn1c(C)nnc1SCC(=O)Nc1nc(C)c(C(=O)N(C)C)s1 do in these assays?
LANA-H2B inh: -8.5; B2AR ag: 5; UCH37 DUB inh: 3.1; ALR H2O2 inh: -4; HNF4A DNA FP: -0.5; E coli growth: 0.73; FGF22 binding: inactive

Results for OC(CC#CCN1CCCC1)(c1ccccc1)c1ccccc1 ?
LANA-H2B inh: 2.3; B2AR ag: -8; UCH37 DUB inh: 2.8; ALR H2O2 inh: 1; HNF4A DNA FP: -1.7; E coli growth: 0.62; FGF22 binding: inactive

How did CCCOc1ccc(Cc2nn3c(=O)/c(=C/c4ccco4)sc3nc2=O)cc1 do in these assays?
LANA-H2B inh: 3.1; B2AR ag: -1; ALR H2O2 inh: 0; HNF4A DNA FP: -16

How did CC(=O)Nc1nc(-c2cc([N+](=O)[O-])cs2)cs1 do in these assays?
LANA-H2B inh: 1.2; B2AR ag: 9; UCH37 DUB inh: 2.8; HNF4A DNA FP: 1.8; E coli growth: 0.69; FGF22 binding: inactive

Results for O=C(Nc1ccc(NC(=O)c2cccs2)cc1)c1ccc2c(c1)OCO2 ?
LANA-H2B inh: -0.5; B2AR ag: -3; UCH37 DUB inh: -3.7; HNF4A DNA FP: 1.5; E coli growth: 0.68; FGF22 binding: inactive

What do the screens show for `CCOc1ccc(NC(=O)CN(C)C(=O)CCSc2ccc(F)cc2)cc1OCC`?
LANA-H2B inh: 2.7; B2AR ag: 14; UCH37 DUB inh: 0.2; ALR H2O2 inh: -4; HNF4A DNA FP: -5.3; E coli growth: 0.68; FGF22 binding: inactive

What do the screens show for `CCO[C@H]1OC(C(=O)NC2CC2)=C[C@@H](c2csc3ccccc23)[C@@H]1CCCO`?
LANA-H2B inh: -5.8; B2AR ag: -22; UCH37 DUB inh: 0.0; ALR H2O2 inh: 8; HNF4A DNA FP: -1.7; FGF22 binding: inactive

How did Cc1cc(NC(=O)CSc2nc(=O)n3cccc(C)c3n2)no1 do in these assays?
LANA-H2B inh: 2.4; B2AR ag: -6; UCH37 DUB inh: -2.4; ALR H2O2 inh: -11; HNF4A DNA FP: -0.5; E coli growth: 0.71; FGF22 binding: inactive

What do the screens show for `COc1ccc(S(=O)(=O)N2CCN(C(=O)C3CC3)CC2)cc1Br`?
LANA-H2B inh: -4.1; B2AR ag: -4; UCH37 DUB inh: 1.9; HNF4A DNA FP: 0.7; E coli growth: 0.65; FGF22 binding: inactive

How did Cc1[nH]c(=S)[nH]c(=O)c1Cc1c(O)ccc2ccccc12 do in these assays?
B2AR ag: 3; HNF4A DNA FP: -3.8; FGF22 binding: inactive

How did COc1ccc(S(=O)(=O)NC2CC3CCC2C3)cc1 (centres undefined) do in these assays?
LANA-H2B inh: 5.6; B2AR ag: -5; UCH37 DUB inh: 1.9; ALR H2O2 inh: -8; HNF4A DNA FP: 3.1; E coli growth: 0.66; FGF22 binding: inactive

How did COc1ccc(Cn2c(C)ccc2C)cc1 do in these assays?
LANA-H2B inh: -2.2; B2AR ag: 3; UCH37 DUB inh: 1.9; ALR H2O2 inh: -6; HNF4A DNA FP: 8.3; E coli growth: 0.68

What do the screens show for `Cn1c(N=Nc2ccc(N3CCOCC3)cc2)[n+](C)c2ccccc21`?
B2AR ag: -12; UCH37 DUB inh: 4.1; HNF4A DNA FP: 0.9; E coli growth: 0.69; FGF22 binding: inactive

How did COc1ccc(CCNC(=O)CSC2=NS(=O)(=O)c3ccccc3N2)cc1OC do in these assays?
LANA-H2B inh: 0.4; B2AR ag: 0; UCH37 DUB inh: -0.5; ALR H2O2 inh: -3; HNF4A DNA FP: 2.0; E coli growth: 0.68; FGF22 binding: inactive

How did O=C1Cc2ccccc2C(=O)N1OCc1ccc(Cl)cc1 do in these assays?
LANA-H2B inh: -0.9; B2AR ag: 4; UCH37 DUB inh: 5.4; ALR H2O2 inh: 26; HNF4A DNA FP: -2.4; E coli growth: 0.73; FGF22 binding: inactive

How did CC(=O)CSc1nnc(-c2ccc(S(=O)(=O)N3CCCC3)cc2)n1C do in these assays?
LANA-H2B inh: 0.6; B2AR ag: -4; UCH37 DUB inh: 0.9; ALR H2O2 inh: 38; HNF4A DNA FP: 5.1; E coli growth: 0.67; FGF22 binding: inactive

How did COc1cccc(C(=O)NC2CCN(CC(=O)Nc3ccccc3Cl)CC2)c1 do in these assays?
LANA-H2B inh: -0.5; B2AR ag: -16; UCH37 DUB inh: 3.7; ALR H2O2 inh: -4; HNF4A DNA FP: -0.8; E coli growth: 0.64; FGF22 binding: inactive
